Sa growth inh: S. aureus growth inhibition at 42 and 30 °C, primary screen, LtaS inhibitor project, RN4220, two temperatures | OD600, 20 h, 42 °C; active compounds read low | relative growth, % (concentration not given with the values) | 170,000 tested, 0.53% active;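 active = growth at 42 °C up to 50% and 20 or more points under that at 30 °C, or under 10% at both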;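 also: 300 nL library stock went into each well; scaled to the means of positive and negative controls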
GIV Gai3 FP: inhibitors of GIV peptide binding to Galpha-i3, primary screen, biochemical, fluorescence polarization, FITC-GIV GBA peptide, rat Galphai3; 90 min; active compounds read low; scaled: aluminum fluoride 0%, vehicle 100%; Guanine nucleotide-binding protein G(i) subunit alpha-3 (Rattus norvegicus), P08753; 210,000 tested, 0.42% active; percent of control (FP), % (test concentration not listed);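 active = replicate mean at 85% of control or lower, very high polarization wells dropped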;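 also: lower values mean more displacement of the GIV peptide from Galpha-i3; wells of about 15 µL received 100 nL stock; the first replicate is given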
Target sequence (P08753 whole entry, looked up): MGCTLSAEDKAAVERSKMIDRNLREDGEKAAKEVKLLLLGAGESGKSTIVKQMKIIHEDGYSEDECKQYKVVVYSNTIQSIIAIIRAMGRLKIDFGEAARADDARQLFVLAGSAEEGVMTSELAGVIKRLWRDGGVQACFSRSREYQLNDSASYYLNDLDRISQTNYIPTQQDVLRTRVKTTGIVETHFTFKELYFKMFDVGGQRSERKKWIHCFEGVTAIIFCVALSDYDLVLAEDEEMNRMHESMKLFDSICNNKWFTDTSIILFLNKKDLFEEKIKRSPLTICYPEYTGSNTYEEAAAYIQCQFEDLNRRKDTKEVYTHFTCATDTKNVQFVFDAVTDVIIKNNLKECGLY
HCMV NEC inh: inhibitors of HCMV UL50-UL53 interaction, biochemical, HTRF. normalized percent inhibition. HCMV UL50-UL53 nuclear egress complex (human cytomegalovirus). 190,000 tested, 0.15% active. inhibition, % (concentration not given with the values);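 active = both replicates at 50% or more, plus weaker picks with an unusually low signal ratio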;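 also: stock transfer was 100 nL into about 20 µL; 0% = negative control wells and 100% = wells with untagged competitor protein; inactives centre near -12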
Sa growth inh second temp: recorded beside Sa growth inh, whose call it bears; relative growth, %; measured here: growth at 30 °C;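 optical density after 20 h as mean of two plates; 100% = untreated growth and lower means inhibition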
The depositor's hits bear a star; · = not tested or not shown.

smiles,Sa growth inh,Sa growth inh second temp,GIV Gai3 FP,HCMV NEC inh
Cc1cc(C)n(-c2ccc(Cl)c(C(=O)OCC(=O)NCc3ccco3)n2)n1,93,84,·,4
COc1ccc(CCNC(=O)CCc2nc3sc4c(c3c(=O)[nH]2)CCCC4)cc1OC,98,95,106,5
CC(C)C(C)(C#N)NC(=O)CSc1nc2ccc(Br)cc2c(=O)n1Cc1ccco1 (stereo not given),84,98,·,0
COc1cc(C2C(C#N)=C(N)OC3=C2C(=O)CCC3)cc(Br)c1OC (stereo not given),·,·,104,-23
Cc1ccc(Cl)cc1NC(=O)c1[nH]c(C)c(S(=O)(=O)N2CCCC2)c1C,·,·,105,-32
Cn1cc(NC(=O)NCC2CCCO2)c2ccccc2c1=O (stereo not given),86,89,96,-6
O=C(COCc1cc(-c2ccc(F)cc2)on1)N1CCOCC1,72,87,106,·
O=C(c1ccc2c(=O)n3c(nc2c1)CCCCC3)N1CCc2ccccc21,104,92,104,-1
Cc1nn(-c2ccccc2)c2c1N(CCCC(=O)NCc1ccc(N(C)C)cc1)C(=O)CS2,98,87,101,·
O=S1(=O)CCC(N2CCCCC2)C1 (stereo not given),77,103,93,-20
O=C(Nc1ccccc1F)Oc1ccccc1F,101,101,102,-37
CC(NC(=O)C1=COCCO1)c1ccc(Cl)c(Cl)c1 (stereo not given),90,94,·,-3
Cc1ccc(CN(C(=O)Nc2cccc(Cl)c2)c2ccccn2)cc1,92,88,101,-10
CCOc1ccc(C(=O)c2oc3ccccc3c2NC(=O)Cc2coc3cc(C)cc(C)c23)cc1,103,88,107,-1
O=C(CCSc1nnc(-c2ccco2)o1)Nc1ccccc1,100,84,106,-20
Cc1ccc(-c2ccc(N3CCCC(C(=O)NC4CC4)C3)nn2)cc1 (stereo not given),·,·,97,-75
CC(=O)N1c2ccccc2NC2=C(C(=O)CC(C)(C)C2)C1c1cccnc1 (stereo not given),99,106,105,-13
Cc1c(C(=O)Nc2cccc(C(F)(F)F)c2)oc2ccc(S(=O)(=O)N3CCC4(CC3)OCCO4)cc12,104,86,97,·
Cn1c2ccccc2c2cnn(CC(=O)NCCCN3CCN(C4CCCCC4)CC3)c(=O)c21,87,90,100,3
CCOC(=O)c1c(C(=O)OCC)c(C)n(CCc2c[nH]c3ccccc23)c1C,80,60,105,·
CSc1noc(-c2ccc(S(=O)(=O)NCc3ccccc3)s2)c1C#N,99,89,107,2
CCSC1=N/C(=C\c2ccccc2)C(=O)N1c1ccc(C)c(Cl)c1,123,95,99,·
NC(=O)CN(Cc1ccccc1)S(=O)(=O)c1ccc(F)cc1,91,92,96,-12
Cc1ccc(/C=C/c2onc(C)c2S(=O)(=O)N2CCCC(C(=O)N(C)Cc3ccccc3)C2)cc1 (stereo not given),·,·,98,-18
Cc1noc(C)c1S(=O)(=O)N1CCC(c2c(C)n(Cc3cccc(F)c3)c3ccccc23)CC1,·,·,104,-25
CC(=O)Nc1ccc(-c2nc3ccccc3c(=O)o2)cc1,102,83,·,-4
COc1ccc(C2CC(=O)C3=C(C2)NC(C)=C(C(=O)OCc2ccccc2)C3c2ccc(OC(C)=O)c(OC)c2)cc1 (stereo not given),·,·,99,4
O=c1oc2ccccc2cc1-c1nnnn1-c1ccc(F)cc1,89,89,98,-31
COC(=O)CC(=O)CSc1nc(C)cc(C(F)(F)F)c1C#N,96,70,103,-26
CC(C)CCNC(=O)C1CCC(Cn2c(=O)c3sccc3n(CC(N)=O)c2=O)CC1 (stereo not given),·,·,101,-20

Reformatted: results already given.
Fields – Sa growth inh	Sa growth inh second temp	GIV Gai3 FP	HCMV NEC inh
> O=C(CCSc1nnc(-c2ccco2)o1)Nc1ccccc1
 : 100	84	106	-20
> Cc1nn(-c2ccccc2)c2c1N(CCCC(=O)NCc1ccc(N(C)C)cc1)C(=O)CS2
 : 98	87	101	·

The list continues.
smiles,Sa growth inh,Sa growth inh second temp,GIV Gai3 FP,HCMV NEC inh
Cc1ccc(NC(=O)c2cc3nc(-c4ccccc4)cc(-c4ccccc4)n3n2)cc1,106,86,100,-5
CCOCCCn1c(=N)c(S(=O)(=O)c2ccc(C)cc2)cc2c(=O)n3cccc(C)c3nc21,104,94,105,-41
NC(=O)c1c(NC(=O)c2cc3ccccc3o2)sc2c1CCC2,122,82,·,-25
COc1ccc(N2C(=O)c3ccc(-c4nc5ccccc5c(=O)o4)cc3C2=O)c(OC)c1,99,90,98,-9
CCC(C)Nc1nc(-c2ccccc2O)nc2ccccc12 (stereo not given),76,85,108,-4
O=C1C=CC(=O)N1c1ccc(-c2nc3ccccc3o2)cc1,82,64,111,1
Cc1ccccc1OCCn1cc(C(=O)C2CCCCC2)c2ccccc21,108,103,107,14
CCCCCCC(=O)Nc1cc2nc3[nH]c(=O)[nH]c(=O)c3nc2cc1C,·,·,95,-100
O=C(O)CCc1ccc(-c2ccccc2)n1-c1ccc(Cl)cc1,55,20,·,-5
O=C(O)/C=C/c1cnn(-c2ccccc2)c1,82,94,·,-28
CCCC1CCC(C(=O)O)CC1 (stereo not given),·,·,101,-14
O=C(C1=NN(c2ccccc2)C2C(=O)N(c3ccccc3)C(=O)C12)c1ccccc1 (stereo not given),85,118,·,-13
COc1ccccc1CNC(=O)CCNS(=O)(=O)c1ccc2c(c1)oc(=O)n2C,108,91,104,-39
Cc1ccc(CNC(=O)Cn2cc(C(=O)c3ccc(Cl)cc3)c(=O)c3ccc(C)nc32)cc1,96,95,111,·
CCc1ccc2occ(CC(=O)Nc3c(C(=O)Nc4ccc(Cl)cc4)oc4ccccc34)c2c1,116,79,102,-12
O=C(O)CSc1nnc(-c2ccc(O)cc2)o1,101,92,105,-22
Cc1nn(-c2cc(N3CCCC3)ncn2)c(C)c1CCC(=O)N1CCN(c2ccccn2)CC1,·,·,97,22
COc1ccc(N2CCN(Cc3c(O)ccc4ccccc34)CC2)cc1,106,95,·,2
COc1ccc(CCC(=O)NCC(c2ccc(N(C)C)cc2)N2CCCC2)cc1 (stereo not given),117,99,107,3
Cc1ccc(C)c(N2CCN(C(=O)c3cc(S(=O)(=O)N4CCCC4)cn3C)CC2)c1,118,98,101,-9
O=C(O)c1ccc(OC(F)F)cc1,86,87,·,-15
CCN(Cc1ccccc1)C(=O)C1CCN(S(=O)(=O)c2c(C)noc2/C=C/c2ccc(C)cc2)CC1,125,106,104,·
CC1(C(=O)NC2CCCC2)Cn2c(cc3ccccc32)C(=O)N1C1CCCCC1 (stereo not given),·,·,106,1
O=C(/C=C/c1cn(Cc2ccccc2)nn1)N1CCN(C2CCS(=O)(=O)C2)CC1 (stereo not given),113,103,·,9
CCc1cc(=O)oc2c(C)c3c(cc12)CN(CCc1ccccc1)CO3,105,87,102,-11
CCOc1cc(/C=C2/C(=O)N(c3nn[nH]n3)N=C2C)cc(Cl)c1OCC,82,64,74*,-9
CC1CCc2c(sc3nc(C(C)C)n4c(SCC(=O)NCc5ccco5)nnc4c23)C1 (stereo not given),90,98,104,9
COCCc1cc(C(F)(F)F)c2c(=O)n(C)c(=O)n(C)c2n1,81,84,·,-19
COc1ccc(-c2cn3c(n2)sc2cc(C(=O)NCCCN4CCCCC4)ccc23)cc1,104,77,104,·
COC(=O)C1=C(C)N(C)C(=S)N(C)C1c1cccc(Br)c1 (stereo not given),95,82,·,-26
CN(C)NS(=O)(=O)c1ccc2c(c1)Cc1cc(S(=O)(=O)NN(C)C)ccc1-2,59,64,96,-6
COC(=O)CNS(=O)(=O)c1cc(N2C(=O)CCS2(=O)=O)ccc1OC,·,·,101,-11
Cc1ccc2cc(-c3noc(CCC(=O)NC(C)C)n3)c(=O)[nH]c2c1,·,·,107,-59
CC1(C)Cc2nc3c(cc2CO1)c(=O)n(Cc1ccccc1)c(=O)n3CC(N)=O,·,·,101,-21
COc1ccc(-c2noc(CN(C(=O)CCc3ccccc3)C(C)C)n2)cc1,97,95,102,-28
Cc1ccc(C(C)C)c(OCC(=O)OCCN2C(=O)c3ccccc3C2=O)c1,97,94,105,-6
O=C(Nc1ccccc1)c1ccccc1,103,82,·,-9
CN(C)CCCNc1c2c(nc3cc(-c4cccc(F)c4)nn13)CCC2,91,77,99,-7
O=C(CSc1nc2c(sc3ccccc32)c(=O)n1CC1CCCO1)c1ccccc1 (stereo not given),115,90,101,·
CCCNC(=O)Cn1cnc2sc(C(=O)NCCCN3CCOCC3)c(C)c2c1=O,84,92,105,·
Cc1ccc2c(c1)N(C(=O)N1CCC(C(=O)O)CC1)CC(C)O2 (stereo not given),116,97,105,·
COc1ccc(Nc2nc(C)c3nc(C)n(-c4ccc(OC)c(Cl)c4)c3n2)cc1Cl,·,·,104,-37
CCOC(=O)c1cccc(NC(=O)[C@@H](c2ccccc2)N2Cc3ccccc3C2=O)c1,105,85,97,-29
Nc1nc(SCC(=O)N(CCO)CCO)nc2sc3c(c12)CCCC3,100,101,108,6
COc1ccc(CCNC(=O)C2CCN(c3c(-n4c(C)ccc4C)c(C)nn3-c3ccccc3)CC2)cc1OC,·,·,107,-26
COC(=O)c1cnc2sc3ccccc3n2c1=O,82,74,112,·
Cc1cccc(NC(=O)c2c(C)cc(C)nc2SCC(=O)Nc2nc3ccccc3s2)c1,·,·,103,-3
CCOc1c(Br)cc(/C=c2/sc3nc4ccccc4n3c2=O)cc1OC,·,·,109,-1
COc1cc(NC(=O)CSc2nccn2C)cc(OC)c1OC,102,87,103,-18
CNS(=O)(=O)c1c(C)[nH]c(=O)[nH]c1=O,·,·,106,-17
O=C(COc1ccccc1)Nc1nnc(SCc2cc(=O)c3ccccc3[nH]2)s1,101,84,103,·
COC(=O)Cc1ccccn1,94,92,·,-6
COC(=O)c1ccc(C(=O)OC)c(NC(=O)c2c(-c3ccccc3)noc2C)c1,100,105,111,-4
CC(C(=O)Nc1ccccc1C(F)(F)F)n1nc(-c2ccccc2)c2c(c1=O)CCCC2 (stereo not given),88,74,98,-7
CCCc1cc(N2CCN(c3ccccc3)CC2)n2cnnc2n1,89,89,103,-2
CN(c1ccccc1C(=O)N1CCN(c2cccc(Cl)c2)CC1)S(C)(=O)=O,105,105,109,-2
Cc1ccc(Cl)cc1N1CCN(CCNS(=O)(=O)c2ccc3c(c2)C(C)(C)C(=O)N3C)CC1,90,66,99,-14
Cc1ccccc1NS(=O)(=O)c1ccc2[nH]cc(C(=O)N(C)Cc3ccccc3)c(=O)c2c1,145,80,104,·
COC(=O)CC1=CC(SCC(=O)NC(C)C)=Nc2cc(C)c(C)cc2N1,·,·,102,-20
CCOc1ccccc1NC(=O)N(Cc1ccc(C)o1)C1CCN(C(C)=O)CC1,119,86,101,·

Later entries.
smiles,Sa growth inh,Sa growth inh second temp,GIV Gai3 FP,HCMV NEC inh
COc1cccc([C@@H]2[C@@H](c3ccc(OC)c(F)c3)N3C=Cc4ccccc4[C@@H]3C2(C#N)C#N)c1,99,83,·,-38
CCc1ccc(NC(=O)C2CCN(S(=O)(=O)c3c(C)noc3C)CC2)cc1,120,91,108,-10
Cn1cnc(S(=O)(=O)N2CCC(C(=O)N3CCN(c4ccc(F)cc4)CC3)CC2)c1,·,·,102,-33
Cc1ccc(-c2nn(-c3cccc([N+](=O)[O-])c3)c3c2cnc2ccc(F)cc23)cc1,85,84,97,·
Cc1c(Cl)cccc1NCc1nc2nc3c(c(=O)n2[nH]1)CCC3,·,·,106,-24
COC(=O)c1nn(-c2ccc(Br)cc2C)c(Br)c1C(=O)OC,127,95,·,-1
CC(C)CCn1c(SCc2ccc(F)cc2Cl)nc2ccsc2c1=O,89,91,102,·
COc1ccccc1CNC(=O)CSc1nc2nc(C)c(Cc3ccccc3C)c(C)n2n1,101,92,104,-5
CC(C)(C)c1ccc(S(=O)(=O)N2CCCN(c3ccc(=O)n(-c4ccc(F)cc4)n3)CC2)cc1,·,·,107,-4
COCCNC(=O)c1cccc(Nc2nc3ccccc3n3nnnc23)c1,133,80,108,·
Cc1cc(C)nc(SC/C(N)=N\O)n1,74,63,106,-5
CC1(C)CN(c2ccc(C(=O)c3ccccc3)cc2)C1=O,·,·,102,-9
Cc1ccc(-n2nc3ccc(NC(=O)c4ccc5c(c4)OCCO5)cc3n2)cc1Cl,·,·,94,-27

Profiles, looked up by structure.
CCc1ccc(NC(=O)C2CCN(S(=O)(=O)c3c(C)noc3C)CC2)cc1 reads Sa growth inh = 120; Sa growth inh second temp = 91; GIV Gai3 FP = 108; HCMV NEC inh = -10
COCCNC(=O)c1cccc(Nc2nc3ccccc3n3nnnc23)c1 reads Sa growth inh = 133; Sa growth inh second temp = 80; GIV Gai3 FP = 108; HCMV NEC inh = ·
Cc1ccc(-c2nn(-c3cccc([N+](=O)[O-])c3)c3c2cnc2ccc(F)cc23)cc1 reads Sa growth inh = 85; Sa growth inh second temp = 84; GIV Gai3 FP = 97; HCMV NEC inh = ·
